Compound activity as filed in PubChem.
Beta apoptosis: inhibitors of cytokine-induced beta cell apoptosis, primary screen, luminescence. INS-1E cytokine-induced death, ATP luminescence, 48 h; percent of positive-control rescue, neutral wells zero. protection from apoptosis, % (no concentration beside the values). 0.8% of 300,000 active;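 active means all replicates at 75% or more, or half of them and the mean; inconclusive means half reach 75% but not the mean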;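 further: 0% = cytokine-treated negative control wells and 100% = positive control rescue; higher means more ATP so stronger rescue from cytokine killing; wells of about 40 µL received 100 nL stock; the first replicate is given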
T cruzi repl: inhibitors of intracellular T. cruzi growth, primary screen, luminescence, NIH3T3 host cells. T. cruzi beta-gal in NIH3T3, 90 h. inhibition, % (no concentration beside the values). 1.4% of 300,000 active. AID 1885, 2009;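 active means mean inhibition across valid replicates above about 55%, limit read from the data; inconclusive means mean below that limit but half or more replicates reach it; inactive means mean below it, under half of replicates reach it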;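 further: signal also drops with host cell toxicity which is not excluded here; 0% = plate median of DMSO wells and 100% = zero luminescence signal; higher percent means less beta-gal luminescence so fewer parasites; stock transfer was 50 nL into about 50 µL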
LANA-H2B inh: blockers of LANA interaction with H2A/H2B – biochemical, FP readout, HTS, primary screen; Protein LANA1 (Human herpesvirus 8 type P (isolate GK18)), Q9QR71; cell-free LANA-H2A/H2B peptide, fluorescence polarization; inhibition, % (no concentration beside the values); 0.6% of 320,000 active; in the data active means inhibition mostly above about 10%, no sharp cut-off; inactive means mostly below about 6.7%;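 further: stock transfer was 7.5 nL into about 10 µL; 0% = median of vehicle wells and 100% = median of positive control wells; one replicate is shown; the record names a cut of 25% in any replicate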
Beta2AR agonist: beta2AR agonists driving receptor internalization, primary screen, cell-based, FAP fluorogen, flow cytometry; Beta-2 adrenergic receptor (Homo sapiens), P07550; Am2.2-beta2AR cells; reference of the scale not given here; 0.43% of 340,000 active; AID 504454, 2011; response, % (concentration not given with the values);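 active means response above a set limit, near 3 SD of response in nonfluorescent compounds, cut at about 42% in these data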;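 further: stock transfer was 100 nL into about 11 µL; a reference agonist was the positive control; negative values mostly stem from fluorescent compounds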
Target sequence (P07550 whole entry, looked up): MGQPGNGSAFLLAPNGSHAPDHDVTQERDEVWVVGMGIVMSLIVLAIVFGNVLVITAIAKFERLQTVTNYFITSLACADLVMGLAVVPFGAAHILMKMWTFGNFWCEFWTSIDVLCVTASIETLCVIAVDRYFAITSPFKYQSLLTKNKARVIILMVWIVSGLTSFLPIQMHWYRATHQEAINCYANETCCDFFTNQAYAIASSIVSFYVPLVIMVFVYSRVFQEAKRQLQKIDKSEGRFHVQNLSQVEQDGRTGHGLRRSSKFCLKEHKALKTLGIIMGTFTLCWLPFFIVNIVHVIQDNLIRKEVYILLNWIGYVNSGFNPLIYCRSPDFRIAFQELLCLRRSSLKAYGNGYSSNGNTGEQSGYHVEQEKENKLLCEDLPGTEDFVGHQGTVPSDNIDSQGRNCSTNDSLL
RanGTP-Imp inh: inhibitors of RanGTP-importin-beta interaction, primary screen, biochemical, FRET, CFP-Ran, YFP-importin-beta, homogeneous; cell-free CFP-Ran/YFP-importin-beta FRET ratio; Ran GTPase (GTP-bound) - importin-beta complex; inhibition, % (concentration not given with the values); 1.1% of 300,000 active;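 active means most replicates above 15%; inconclusive means exactly half above 15%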;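 further: 0% = DMSO wells and 100% = Ran loaded with GDP instead of GTP; wells of about 40 µL received 100 nL stock; the first replicate is given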
UCH37 DUB inh: inhibitors of human UCH37 deubiquitinase, primary screen, biochemical, Ub-AMC cleavage, fluorescence; purified proteasome/UCH37; inhibition, % (concentration not given with the values); 0.33% of 330,000 active; AID 588478, 2011;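 active means mean of two replicates above 20%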;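 further: 0% = compound-free wells with enzyme and 100% = wells lacking proteasome; stock transfer was 100 nL into about 20 µL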
Target sequence (Q9Y5K5 whole entry, looked up): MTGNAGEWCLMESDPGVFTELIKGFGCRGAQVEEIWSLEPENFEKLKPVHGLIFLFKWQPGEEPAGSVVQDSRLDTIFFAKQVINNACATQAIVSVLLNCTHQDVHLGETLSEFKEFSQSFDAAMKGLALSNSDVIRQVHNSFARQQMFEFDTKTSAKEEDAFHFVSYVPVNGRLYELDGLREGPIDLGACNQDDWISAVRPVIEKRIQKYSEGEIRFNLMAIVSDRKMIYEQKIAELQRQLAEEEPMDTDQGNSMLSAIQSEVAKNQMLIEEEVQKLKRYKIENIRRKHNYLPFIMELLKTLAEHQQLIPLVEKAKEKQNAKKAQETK
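assay system = human UCH37 enzyme supplied as purified proteasome complex | amount = proteasome at 0.15 nM in the dispensed enzyme solution | schedule = 30 min compound-proteasome preincubation then 25 min substrate reaction, room temperature | measured by = fluorescence, ex 355 nm, em 460 nm | benchmarks = no-proteasome wells (full inhibition) and compound-free wells (no inhibition)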
A1 inh: caspase 3/7 activation in MEF A1-2A-BIM cells, primary screen, A1 inhibitor project, cell-based, luminescence, HTS; caspase activation, % (concentration not given with the values); 0.066% of 330,000 active; AID 2462, 2010; Caspase-Glo 3/7 luminescence, 3 h; percent of clofoctol response, vehicle zero;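 active means over half of replicate activation scores above 10%, or exactly half above 10 with the replicate mean above 10; inconclusive means replicate mean below 10 yet half the replicates above 10; inactive means over half of replicates below 10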;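 further: wells of about 30 µL received 50 nL stock; many hits fall short of the cut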
Calb FLC: C. albicans growth inhibition with fluconazole, primary screen, CaCi-2 strain, Alamar Blue fluorescence; AID 1979, 2009; growth inhibition, % (test concentration not listed); 0.57% of 300,000 active; C. albicans CaCi-2 (fluconazole-resistant clinical isolate) + fluconazole, 48 h;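 active means most replicates above 75%; inconclusive means exactly half above 75%; inactive means most below 75%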;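 further: all wells also contain fluconazole at 8 µg/ml as a sub-toxic cotreatment; 0% = median of DMSO wells and 100% = median of geldanamycin control wells; wells of about 8 µL received 7.5 nL stock; the first replicate is given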
* hit, by the source's call; ? = inconclusive; nt = not tested or not shown. The order is random; about 4.3% have a hit in one of these screens.

SMILES | Beta apoptosis | T cruzi repl | LANA-H2B inh | Beta2AR agonist | RanGTP-Imp inh | UCH37 DUB inh | A1 inh | Calb FLC
COc1cc(NS(=O)(=O)c2ccc(NC(=O)c3ccc([N+](=O)[O-])cc3)cc2)ncn1 | -6 | -2 | -2.4 | 3 | 2.7 | 4.6 | 0.6 | -1
Cc1cc(C)n(-c2nnc(C)n2/N=C/c2ccccc2O)n1 | 1 | 11 | -3.6 | -3 | 0.2 | nt | 0.4 | 11
CN(O)/C=N/C(=S)Nc1ccc(Cl)cc1Cl | nt | -7 | -5.8 | 9 | -1.1 | nt | 2.1 | 3
COc1cccc([C@@H]2CC=C(C(=O)O)[C@H](c3ccc(Cl)cc3)N2S(=O)(=O)c2ccc(C)cc2)c1 | -4 | nt | -1.6 | 0 | nt | -2.2 | 0.3 | nt
CC(C)CCn1c(=O)c2c(nc3n2CCCN3Cc2ccccc2)n(C)c1=O | 7 | 12 | -1.3 | 4 | -0.9 | 2.3 | 0.1 | 13
Cc1nn(C)c(-c2n[nH]c(=S)n2-c2ccccc2)c1Cl | -5 | -23 | 3.6 | -5 | 2.3 | 2.5 | 1.3 | 1
O=C(Nc1ccccc1)c1ccccc1OS(=O)(=O)c1ccccc1 | -6 | 5 | -5.4 | 15 | -0.8 | 1.1 | -0.6 | 5
O=C(CCN1C(=O)/C(=C/c2ccc(Cl)cc2)SC1=S)Nc1cccnc1 | 3 | -2 | -1.3 | 4 | -0.4 | 8.2 | -0.1 | -1
O=C1CN(C(=O)c2ccc(Cl)nc2)c2ccccc2N1 | -5 | -8 | 3.5 | 10 | 0.6 | 5.6 | ? | 1
COc1ccc(/C=C2/SC(=O)N(CCNC(=O)CC(NC(C)=O)c3ccccc3)C2=O)cc1 (configuration not stated) | 2 | -7 | 0.5 | -4 | -2.5 | 2.1 | -0.4 | -4
COc1ccc(CN(C)C(=O)c2cc(S(=O)(=O)N3CCCCCC3)ccc2OC)cc1OC | 0 | 20 | -4.1 | 3 | 4.1 | -0.1 | 0.3 | -3
CCOCCCNC(=O)CCc1nnc2n(CCC(C)C)c(=O)c3ccccc3n12 | 1 | 4 | 1.3 | -15 | 0.4 | 0.1 | -0.2 | -11
Cc1cc(C(C)(C)C)c(OC(=O)[C@@H]2OC(c3ccccc3)=C[C@H]2c2ccccc2)c(C(C)(C)C)c1 | 3 | nt | 4.8 | 4 | nt | nt | -0.1 | nt
N#Cc1ccccc1OCC(=O)NC(=O)NCc1ccccc1 | -2 | -5 | 1.0 | -3 | -3.3 | -9.6 | -0.1 | -2
CC(C)CC(=O)Nc1ccc(C(=O)CN2C(=O)NC3(CCOc4ccccc43)C2=O)cc1 (configuration not stated) | 9 | 14 | -0.5 | 1 | 6.5 | 3.3 | -0.4 | -1
COc1ccc2nc(SCC(=O)NC3CC3)c(C#N)cc2c1 | -5 | -7 | 1.0 | -13 | ? | -12 | 0.0 | -11
O=C(CN1CCN(Cc2ccccc2)CC1)N1CCCCCC1 | -4 | 52 | -0.6 | 1 | 5.6 | 0.3 | 0.1 | 0
O=C(CN(C(=O)c1ccco1)c1cccc(F)c1)NCc1ccc(F)cc1 | nt | -1 | 6.6 | -5 | 3.8 | 1.4 | -1.1 | -4
COc1ccc(CC(=O)NCCN2CCOCC2)cc1 | -3 | -8 | 1.7 | -10 | 7.1 | -0.6 | 4.1 | 9
OC(CN1CCN(c2ccc(F)cc2)CC1)c1ccc(Cl)cc1 (configuration not stated) | nt | -1 | -1.1 | -4 | 5.7 | 0.2 | -0.4 | -6

Next part (2 carried over from the part before).
SMILES | Beta apoptosis | T cruzi repl | LANA-H2B inh | Beta2AR agonist | RanGTP-Imp inh | UCH37 DUB inh | A1 inh | Calb FLC
COc1ccc(CC(=O)NCCN2CCOCC2)cc1 | -3 | -8 | 1.7 | -10 | 7.1 | -0.6 | 4.1 | 9
OC(CN1CCN(c2ccc(F)cc2)CC1)c1ccc(Cl)cc1 (configuration not stated) | nt | -1 | -1.1 | -4 | 5.7 | 0.2 | -0.4 | -6
CCN(CC)CCCNc1nc(C)cc(COC)c1C#N | 0 | 5 | -1.0 | 2 | 0.6 | -207 | 0.2 | -20
COc1ccc(-c2nnc(SCc3nc4ccccc4s3)n2C(C)C)cc1 | 1 | 13 | -3.3 | -19 | 4.2 | -4.7 | -0.4 | 0
CCOC(=O)N1CCN(C(=O)C2CCN(S(=O)(=O)c3cc(C)ccc3OC)CC2)CC1 | -1 | 0 | 0.8 | -10 | -3.5 | 0.9 | 0.3 | -7
CCN(CC)S(=O)(=O)c1ccc2[nH]c(=O)cc(C(=O)NCC3CCCO3)c2c1 (configuration not stated) | -5 | ? | 4.5 | -6 | -1.9 | -1.0 | -0.2 | nt
O=C(CSc1nc2ccccc2c(=O)n1-c1ccccc1F)NC1CCS(=O)(=O)C1 (configuration not stated) | -3 | nt | 124* | 0 | nt | 1.2 | -0.3 | nt
Cc1ccc(NC(=O)c2ccco2)cc1C | 13 | -11 | 4.0 | 4 | -1.3 | 2.0 | -5.1 | 3
O=C(Nc1nc2ccccc2n1Cc1ccc(Cl)cc1)c1ccco1 | 29 | 76* | -0.3 | -4 | ? | -97 | 1.1 | 24
CCOC(=O)c1ccc(NC(=O)Cn2cc3c(n2)CCC(C)C3)cc1 (configuration not stated) | -5 | 6 | 23 | -8 | -1.6 | 0.4 | -0.9 | 10
Cc1cc(-c2cccnc2)c(C#N)c(SCC#N)n1 | 4 | -11 | -2.7 | -16 | -1.5 | 2.2 | -1.6 | 23
COCc1cc(C)nc(OCC(=O)N/N=C/c2ccccc2)c1C#N | -4 | 7 | -2.1 | 0 | -2.3 | nt | 0.3 | -6
COc1nccnc1NS(=O)(=O)c1ccc(NC(=O)c2ccccc2Br)cc1 | -8 | 7 | 0.6 | -10 | 5.6 | -0.1 | -1.5 | -10
CS(=O)(=O)Cc1ccc(C(=O)NNC(=O)c2cc(-c3ccccc3)n[nH]2)cc1 | -8 | nt | 3.8 | -3 | nt | -0.1 | -0.6 | nt
CCOc1cccc2cc(C(=O)NCc3ccc(C)cc3)c(=N)oc12 | -3 | 13 | -8.6 | 6 | ? | -2.2 | -0.1 | -2
O=C(CCl)Nc1cc2[nH]c(=O)[nH]c2cc1Br | -2 | -35 | 3.7 | -4 | -0.6 | 5.8 | -0.6 | -5
S=c1nccc(-c2ccc3c(c2)CCO3)[nH]1 | -15 | -13 | 6.0 | 10 | -2.5 | nt | 0.6 | 1
COc1ccc(C2=CC3=C(Br)C(=O)C(C)(O)C(=O)C3=CO2)cc1 (configuration not stated) | -1 | 3 | -0.6 | -4 | -2.3 | 0.8 | -0.6 | 6
Cc1cccc2nc(-c3cccc(NC(=O)c4ccc(Cl)cc4)c3)cn12 | 0 | -20 | 9.4 | 12 | 5.5 | -2.0 | 0.2 | 26
Cc1ccc(OCC(=O)Nc2ccc3c4c(cccc24)CC3)c(C)c1 | 9 | -22 | -0.1 | -21 | 3.6 | 3.3 | 0.3 | -6
O=C(NCCCN1CCOCC1)c1ccc(CS(=O)(=O)c2c(Cl)cccc2Cl)o1 | 0 | -20 | -1.5 | 2 | 0.1 | 1.3 | 1.2 | -6
O=C(NCCCCc1ccccc1)C1CC(c2ccc([N+](=O)[O-])cc2)=NO1 (configuration not stated) | -4 | 7 | -6.2 | -3 | -11 | 3.2 | 0.0 | -13
C/C(=N\NC(=O)CNc1cccc2ccccc12)c1ccc(Br)s1 | -2 | 9 | 0.0 | 10 | 5.9 | nt | 0.1 | 3
COc1ccc(NC(=O)CSc2nc3c(c(=O)n2C)SCC3)cc1OC | -4 | 5 | 1.7 | -3 | 8.4 | 2.7 | 0.2 | 2
CCOC(CCn1c(SCC(=O)NC2CCCC2)nc2ccccc2c1=O)OCC | 0 | 11 | 7.2 | -5 | -2.7 | -0.9 | 1.7 | -3
CC(C)CCNC(=O)Cn1c(=O)oc2cc(S(=O)(=O)N3CCc4ccccc43)ccc21 | 12 | 34 | 2.1 | 1 | 0.8 | 6.2 | -0.2 | -2
CC(C)N1CCCC(CNC(=O)CCc2nnc(CCCCc3ccccc3)o2)C1 (configuration not stated) | -6 | 27 | 2.6 | -3 | -2.3 | 5.7 | 1.0 | 19
Cc1c(Br)c([N+](=O)[O-])nn1CC(=O)NCc1ccco1 | -2 | 12 | 1.3 | 16 | 2.4 | -0.7 | 0.7 | 4
c1ccc(Cc2cc(-c3ccccc3)on2)cc1 | -8 | 13 | -1.0 | -9 | 2.0 | 0.2 | -0.9 | -2
CC12CC3CC(C)(C1)CC(C(=O)NCc1ccncc1)(C3)C2 | -1 | -12 | 1.9 | -4 | 0.1 | -1.0 | -0.7 | 3
Cc1nc2cc(NCc3cc([N+](=O)[O-])ccc3O)ccc2n1Cc1ccccc1 | 4 | 18 | 5.2 | -2 | -2.0 | 2.3 | 0.0 | 36
COc1ccc(NC(=O)c2ccccc2N(Cc2ccccc2)S(C)(=O)=O)c(OC)c1 | nt | 5 | 0.3 | 9 | -1.8 | 5.0 | 1.0 | -1
Cn1nc(C(=O)OCc2ccc(Br)cc2F)c2ccccc2c1=O | 0 | -2 | -4.4 | -2 | -1.4 | 3.5 | 0.1 | 2
COc1cc2[nH]c(=S)n(Cc3ccc(C)cc3)c(=O)c2cc1OC | 14 | -3 | -3.2 | -8 | 0.9 | 3.8 | 0.2 | -5
Cc1ccc2nc(CSc3nnc(-c4ccco4)n3-c3ccccc3)cc(=O)n2c1 | -5 | -1 | 3.8 | -13 | 2.7 | -1.4 | 0.4 | 28
Cc1ccccc1N(CC(=O)NCCc1ccccc1)C(=O)CCC(=O)Nc1ccccn1 | 3 | -3 | -0.2 | -3 | 3.9 | 2.3 | -0.5 | -5
Cc1ccc(NC(=O)CN2C(=O)NC(Cc3c[nH]c4ccccc34)C2=O)cc1S(=O)(=O)N1CCCCC1 (configuration not stated) | -3 | -21 | 11 | 18 | -0.7 | 2.6 | -0.2 | 5
O=C(O)CCC(=O)Nc1ccc(F)cc1 | -4 | ? | 2.9 | -3 | -1.1 | -0.5 | -0.6 | 2
Cn1c(CN2CCOCC2)nc2cc(NC(=O)COc3ccccc3)ccc21 | -3 | nt | 1.7 | -3 | nt | -4.0 | -1.6 | -17
CC(=O)n1cc([C@@H]2C=C(C(=O)N3CCOCC3)O[C@H](OCCCCO)C2)c2ccccc21 | -9 | -6 | 4.3 | 3 | 5.4 | 1.7 | 0.5 | 6
COc1cc2c(cc1OC)C(c1cccc(Cl)c1Cl)CC(=O)N2 (configuration not stated) | -2 | 27 | -2.9 | 6 | -3.3 | 3.8 | 1.1 | 1
CC(C)(C)OC(=O)N/N=C/c1cccc([N+](=O)[O-])c1 | 0 | -2 | -0.2 | -8 | -3.6 | nt | -0.1 | -12
